# EPAC1 ag val – human EPAC1 agonism, validation; O95398; EPAC1 Rap1b BODIPY-GDP exchange, fluorescence; Potency, µM, without a hit: max response, positive = active, actives largely listed as activators; hit rate 1% among 16,000; active means well fitted activation curve with a large enough effect; inconclusive means small, poorly fitted or top-dose-only effect; inactive means no such curve, though single readings can be large or run the other way;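 further: nearly all actives have a fitted effect of over 70% in size; series mostly up to about 76 or 150 µM; scaled to a cAMP control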
# Target sequence (O95398 whole entry, looked up): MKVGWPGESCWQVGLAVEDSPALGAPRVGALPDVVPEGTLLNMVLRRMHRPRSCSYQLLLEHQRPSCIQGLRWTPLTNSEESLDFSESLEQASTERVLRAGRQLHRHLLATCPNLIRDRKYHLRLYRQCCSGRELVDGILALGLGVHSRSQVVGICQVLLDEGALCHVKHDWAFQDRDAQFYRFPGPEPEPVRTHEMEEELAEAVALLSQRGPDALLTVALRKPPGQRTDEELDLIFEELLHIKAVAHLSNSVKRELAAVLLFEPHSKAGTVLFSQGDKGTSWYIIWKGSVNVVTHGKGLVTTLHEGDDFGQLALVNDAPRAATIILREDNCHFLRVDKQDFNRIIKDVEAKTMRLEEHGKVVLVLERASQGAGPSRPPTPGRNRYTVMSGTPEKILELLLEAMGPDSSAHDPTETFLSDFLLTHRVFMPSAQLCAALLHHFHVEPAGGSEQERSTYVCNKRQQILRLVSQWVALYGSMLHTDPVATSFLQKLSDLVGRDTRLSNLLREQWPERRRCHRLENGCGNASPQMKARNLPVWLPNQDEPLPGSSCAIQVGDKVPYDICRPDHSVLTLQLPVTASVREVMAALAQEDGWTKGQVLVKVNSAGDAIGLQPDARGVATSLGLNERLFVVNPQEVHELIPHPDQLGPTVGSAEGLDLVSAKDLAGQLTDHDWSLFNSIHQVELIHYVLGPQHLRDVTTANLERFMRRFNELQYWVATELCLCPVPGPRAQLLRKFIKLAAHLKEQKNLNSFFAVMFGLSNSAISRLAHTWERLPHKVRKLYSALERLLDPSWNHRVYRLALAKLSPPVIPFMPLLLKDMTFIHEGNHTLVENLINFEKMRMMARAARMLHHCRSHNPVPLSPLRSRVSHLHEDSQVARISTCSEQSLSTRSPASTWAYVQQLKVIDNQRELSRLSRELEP
# Starred values were filed as active, the others as inactive; u = inconclusive; & = joins results of further samples; [ ] = remark or other dose. On the % scale 0 is the no-effect control and ±100 the full control effect; potency means the concentration at half of the fitted maximal effect. Not all compounds are listed (hit frequency here may not be typical).
# Start of the data: the first three entries as a preview:
canonical_smiles,EPAC1 ag val
COc1cc(OC)c(OC)cc1CN1CCOc2ccc(CN3C[C@@H](C)O[C@@H](C)C3)cc2C1,-13.1%
COC(=O)N1CCC2(CCN(Cc3cc(C(F)(F)F)cc(C(F)(F)F)c3)CC2)CC1,-81.3%[inhibitor]
Oc1cc(-c2nc3ccccc3s2)cc2c1OCCN(Cc1cccn1-c1nccs1)C2,0.2%

# This part in full, repeating the preview:
canonical_smiles,EPAC1 ag val
COc1cc(OC)c(OC)cc1CN1CCOc2ccc(CN3C[C@@H](C)O[C@@H](C)C3)cc2C1,-13.1%
COC(=O)N1CCC2(CCN(Cc3cc(C(F)(F)F)cc(C(F)(F)F)c3)CC2)CC1,-81.3%[inhibitor]
Oc1cc(-c2nc3ccccc3s2)cc2c1OCCN(Cc1cccn1-c1nccs1)C2,0.2%
COc1cc2c3cc1Oc1c(OC)c(OC)cc4c1[C@@H](Cc1ccc(O)c(c1)Oc1ccc(cc1)C[C@@H]3N(C)CC2)N(C)CC4,-9.4%
Cc1ccnc2c(Cl)c(Cl)ccc12,14.9%
COC(=O)[C@@H](Cc1ccccc1)N(Cc1ccccc1)S(=O)(=O)N(Cc1ccccc1)[C@H](Cc1ccccc1)C(=O)OC,u
N[C@@H](Cn1ccc(=O)c(O)c1)C(=O)O,6.1%
CCCCN(CC)CCOc1cccc2ccccc12,-17.1%
O=C(Cn1cnnn1)N[C@@H]1C(=O)N2C(C(=O)O)=C(CSc3nncs3)CS[C@H]12,9.5%&21.7%
Cc1cc(=O)[nH]c(=S)[nH]1,18.8%
CC(=O)OC1CC[C@]2(C)C(=CCC3C4CCC(C(C)CCCC(C)C)[C@]4(C)CCC32)C1 (stereo not given in full),-24.3%
COc1ccc2c(=O)cc(-c3ccc(O)cc3)oc2c1,-18.7%
CC1=CC(=O)C2=C(C)C[C@H](OC(=O)Cc3ccccc3)C3[C@H](OC(=O)[C@H]3C)C12 (stereo not given in full),-7.3%
c1cncc(CNc2ncnc3ccc(-c4cccnc4)cc23)c1,14.0%
CC(Cc1ccccc1)(NC(=O)CN)c1ccccc1 (stereo not given),-25.4%
COc1ccccc1C1CN(Cc2cccc(O)c2)Cc2ccccc2O1 (stereo not given),0.6%
Cc1cnc(-n2ncc(C(=O)NCC3CCCN(C)C3)c2C)nc1-c1cccs1 (stereo not given),6.8%
NC(=O)c1cccc(N)c1,1.1%&-5.5%&-8.8%
Cc1c(C(=O)NC2CCCCC2)sc2ncnc(NCCN(C)C)c12,-13.8%
COc1ccc(-c2nc3cnc(N4CCN(C)CC4)nc3n(C)c2=O)cc1,3.4%
Nc1nnc(-c2cccc(Cl)c2Cl)c(N)n1,-7.8%&-2.2%&8.5%
CC1CN(CC(=O)NCC2(N3CCOCC3)CCCC2)Cc2cc(Cl)ccc2O1 (stereo not given),7.0%
COc1ccc(NC(=O)/C=C/c2ccc(Cl)cc2)cc1,20.7%
COC(=O)CCC(C)C1CCC2C3C(C[C@H](O)C12C)C1(C)CC[C@@H](O)CC1C[C@H]3O (stereo not given in full),-30.2%[inhibitor]
CC1(C)C(O)CC[C@]2(C)C1CC[C@@]1(C)C2C(=O)C=C2[C@@H]3C[C@@](C)(C(=O)O)CC[C@@]3(C)CCC21C (stereo not given in full),-3.5%
Oc1c(Cl)cc(Cl)c(Cl)c1Cc1c(O)c(Cl)cc(Cl)c1Cl,13.9%&19.1%
O=C(NCc1nnc2n1CCN(C(=O)c1cccc(Cl)c1)CC2)C1CC1,-1.1%
COc1ccc(CNC(=O)c2cnn(-c3nccc(-c4ccco4)n3)c2C)cc1OC,2.8%
COCCCCC(=NOCCN)c1ccc(C(F)(F)F)cc1,-14.8%&-26.4%
OCC1(CO)COC(C(Cl)(Cl)Cl)OC1,4.8%
CC[C@H](C)C(=O)O[C@H]1C[C@@H](C)C=C2C=C[C@H](C)[C@H](CC[C@@H]3C[C@@H](O)CC(=O)O3)[C@H]21,-4.9%&-79.4%
CC(=O)Nc1cc(C(=O)N2CCCC(C)C2)cc2ncn(CCc3ccccn3)c12 (stereo not given),-4.2%
COc1ccc(CC(N)C(=O)NC2C(O)[C@H](n3cnc4c(N(C)C)ncnc43)O[C@@H]2CO)cc1 (stereo not given in full),-3.4%
Cn1c(=O)c(-c2ccccc2)c(O)c2ccccc21,-11.8%
C#CCN(Cc1ccccc1)S(=O)(=O)C=C,4.8%
Cc1cccc(CNc2ccnc(-c3cccc(NS(C)(=O)=O)c3)n2)c1,-24.8%
O=c1cnc2cnc(N3CCOCC3)nc2n1C1CC1,-24.3%
COc1ccc(-n2c(=O)c(-c3ccc(Cl)cc3)nc3cnc(N4CCOCC4)nc32)cc1,-89.0%[inhibitor]
OC1(c2cccnc2)CCN(Cc2ccc3c(c2)CN(Cc2cccc(C(F)(F)F)c2)CCO3)CC1,18.1%
O=C(C[n+]1ccccc1)c1cccc([N+](=O)[O-])c1,14.4%
COc1cc(=O)n2c(c1C(=O)NCc1ccco1)CCN(C(=O)c1c(F)ccc(F)c1F)CC2,-10.7%
CC(=O)c1ccc(F)c(-c2cc(C)cc3c2OC(CNC(=O)Cc2ccc4c(c2)OCO4)C3)c1 (stereo not given),18.9%
c1cnc2[nH]ccc2c1,9.1%
COc1ccccc1-c1cc(NCc2ccccc2)ncn1,-26.1%
CC1/C=C/C=C/C=C/C=C/C=C/C=C/C=C/C(OC2OC(C)C(O)C(N)C2O)CC2O[C@@](O)(CC(O)CC(O)C(O)CCC(O)CC(O)CC(=O)OC(C)[C@H](C)C1O)CC(O)C2C(=O)O (stereo not given in full),-70.7%[inhibitor]
O=C(OCC(COC(=O)c1cccnc1)(COC(=O)c1cccnc1)COC(=O)c1cccnc1)c1cccnc1,11.5%
CS(=O)(=O)Nc1cc2occ(NC=O)c(=O)c2cc1Oc1ccccc1,-34.5%[inhibitor]
O=c1c2ccccc2oc2ccc(Oc3ccccc3)cc12,100µM*
COc1cccc(OC)c1OCCNCC1COc2ccccc2O1 (stereo not given),3.0%&10.5%&-6.4%
Cc1noc(C)c1-c1nc(N(C)Cc2ccco2)c2ccccc2n1,u
O=C(O)Cc1ccc(CCNS(=O)(=O)c2ccc(Cl)cc2)cc1,4.2%
CNCCC(Oc1ccccc1C)c1ccccc1 (stereo not given),1.7%
COc1cccc(-c2nc(NCc3cccs3)c3ccccc3n2)c1,u
CN(C)c1ccc(-c2nccc(Nc3ccc(F)cc3)n2)cc1,-59.2%[inhibitor]
Cc1ccccc1-c1cncnc1NCc1ccccc1,14.0%
CCCN[C@@H]1C(=O)N2C(C(=O)OCCC)=C(C)CS[C@H]12,-7.4%
Cc1cn2cc(CNC(=O)CN3Cc4ccccc4OC(c4ccccc4F)C3)nc2s1 (stereo not given),-6.4%
COC(=O)C[C@H](NC(=O)[C@H](C)NC(=O)[C@@H](NC(=O)OCc1ccccc1)C(C)C)C(=O)CF,-3.9%
N=c1c[n+](N2CCOCC2)[n-]o1,-4.0%
CC(C)CN1CC[C@@]2(CCCN(C(=O)c3cccc(F)c3)C2)C1,-24.3%

# (list continues)
canonical_smiles,EPAC1 ag val
S=C(S)N1CCCC1,1.0%&6.3%
COC(=O)C1N[C@@H]([C@@H](NC(=O)COc2ccccc2)C(=O)NCc2ccccc2)SC1(C)C (stereo not given in full),-85.7%[inhibitor]
COc1ccc(-c2nc3cnc(N4CCOCC4)nc3n(-c3ccc(OC)cc3)c2=O)cc1,-52.2%[inhibitor]
CCCCC(=O)Oc1ccccc1C(=O)O,12.4%
CC[C@]12CCCN3CCc4c(n(c5ccccc45)C(=O)C1)[C@@H]32,0.1%
COc1cc2cc3c4cc(OC)c(OC)cc4cc[n+]3c(C)c2cc1OC,u
O=C(Nc1ccccc1)[C@@H]1CC=C[C@@H]2CCN(C3CC3)C(=O)[C@@H]21,u
COc1cccc(CN2CCCC(c3nc(-c4ccncc4)ncc3-c3ccccc3C)C2)c1O (stereo not given),9.6%
Cn1c(=O)c2[nH]c(C3CCCC3)nc2n(C)c1=O,5.3%&-18.0%&-3.8%
CCNc1ncc2nc(-c3ccccc3)c(=O)n(C)c2n1,-23.6%
CN1CCC(=O)N([C@H](CN=[N+]=[N-])c2ccccc2)CC1,5.3%
O=C(O)C[C@H]1c2ccc(C(F)(F)F)cc2S(=O)(=O)N1C1CCCCC1,-9.3%
COC(=O)c1cc(CNC(=O)c2cccc(N(C)C)c2)cc(NC(=O)c2ccccc2Cl)c1,-19.3%
COC(=O)c1c(C)[nH]c(C)c1C(=O)c1ccccc1Cc1ccccc1,4.2%&18.0%&-2.7%&20.3%
CC1(C)S[C@@H]2[C@H](NC(=O)Cc3ccccc3)C(=O)N2[C@H]1C(=O)O (tested in a mixture with another compound),-11.9%
COc1cccc(CCNc2ncnc3sc(C(=O)N4CCOCC4)c(C)c23)c1,-11.7%
[O-][n+]1cccc(CO)c1,-6.7%
COC(=O)N1CCC2(CCN(Cc3nccs3)CC2)CC1,-68.9%[inhibitor]
Cc1cccc(CNC(=O)c2cnn(-c3ncc4c(n3)-c3ccccc3CC4)c2C2CC2)n1,1.8%
O=C(C[n+]1cc(Br)cc2ccccc21)c1ccc(Br)cc1,-30.5%[inhibitor]
O=C(c1cccc(F)c1)N1CCC2(CCCN(c3ccccc3)C2)CC1,-38.0%[inhibitor]
N=C(N)N,-4.9%
O=C(Nc1cccc(F)c1)N1CC[C@@]2(CCCN(C(=O)c3cnccn3)C2)C1,-66.1%[inhibitor]
CCC(NC(C)C)C(O)c1ccc(O)c(O)c1 (stereo not given),1.1%&-10.2%
COc1ccc(CN2CCOc3ccc(CN4CCC(Oc5cccnc5)CC4)cc3C2)cc1,-17.2%
C[C@@H]1NC(=O)OC1c1ccco1 (stereo not given in full),8.7%
COc1cccc(C(=O)NC(C)c2nnc3n2CCN(CC=C(C)C)CC3)c1 (stereo not given),7.9%
CN(C)C1CCC(CC2CCc3ccccc32)CC1 (stereo not given),-8.3%
COc1ncc2nc(-c3ccc(Cl)cc3)c(=O)n(-c3ccccc3)c2n1,-69.8%[inhibitor]
CC1(C)CC[C@]2(C(=O)O)C(O)C[C@@]3(C)C(=CCC4[C@@]5(C)CCC(O)C(C)(C)C5CC[C@@]43C)C2C1 (stereo not given in full),-66.3%[inhibitor]
CCCCCc1ccc(-c2cn(Cc3ccc(C)cc3)nn2)cc1,26.6%
c1ccc2c(c1)CCCN2,3.7%
CC(=O)N1CCC2(CCCN(c3ncccn3)C2)CC1,-18.4%
COc1ccccc1-c1nc(NCCNC(C)=O)c2ccccc2n1,-0.5%
COc1ccc2c(=O)c(OC)c(-c3ccccc3)oc2c1,-7.7%
Cc1ccc(SC[C@H](C)CN2CC[C@H](NC(=O)OCc3ccccc3)CCC2=O)cc1,10.9%
Cc1nc2ccc(C(=O)N3CCc4c(cnc(C)c4CNC(=O)/C=C/c4cccs4)C3)cc2nc1C,2.9%
COc1ccc2cccc(N3CCN(CCNC(=O)c4ccc(F)cc4)CC3)c2c1,-4.5%
COc1ccc(-c2c(-c3ccc4c(c3)OCO4)noc2C)cn1,-44.7%[inhibitor]
CC(C)OC(=O)C(C(=O)OC(C)C)=C1SC=CS1,-34.7%[inhibitor]
CN(CCO)C(=O)c1cn(C2CCN(Cc3cccc4ccccc34)CC2)nn1,7.4%
CC(=O)OC[C@H]1O[C@@H](n2ncc(=O)[nH]c2=O)[C@H](OC(C)=O)[C@@H]1OC(C)=O,14.3%
COc1ccc(O)c(CN2CCCN(c3nc(C)c4cc(C)c(C)cc4n3)CC2)c1,14.0%
Cc1ccc2c(c1)ncc[n+]2CC(=O)c1ccc(F)cc1,-3.3%
Cc1cccc(Nc2ccccc2C(=O)O)c1C,-10.6%&-32.4%
CN(C)CCC(O)(c1ccccc1)c1ccccc1Cl (stereo not given),-6.2%
NC[C@H]1O[C@H](O[C@H]2[C@H](O)[C@@H](O[C@H]3O[C@H](CO)[C@@H](O)[C@H](N)[C@H]3O)[C@H](N)C[C@@H]2N)[C@H](N)[C@@H](O)[C@@H]1O,5.6%&25.9%
COc1ccc(C(=O)N2CCC3(CCCN(c4ncccn4)C3)CC2)cc1,15.3%
COc1cc(=O)n2c(c1C(=O)N(C)Cc1cscn1)CCN(C(=O)c1ccc(C)cc1C)CC2,-2.4%
CCNc1ncc2nc(-c3cccs3)c(=O)n(C[C@H]3CCCO3)c2n1,-10.8%
C=C1C(=O)OC2C[C@@]3(C)CCCC(C)C3=CC12 (stereo not given in full),u
C[C@@H](O)[C@H]1C(=O)N2C(C(=O)O)=C([C@H]3CCCO3)S[C@H]12,-13.6%
COCC(=O)N1CCC[C@@]2(CCN(Cc3ccc(C#N)cc3)C2)C1,-69.8%[inhibitor]
CC(C)[C@@H]1[C@H]2CC[C@H](C2)[C@H]1N,-11.0%
C=CC1=C(C)C2=NC1=CC1=NC(=CC3=NC(=CC4=NC(=C2)C(C)=C4CCC(=O)O)C(CCC(=O)O)=C3C)C(C=C)=C1C.[Zn],-18.3%
COC(=O)c1cc(CNC(=O)c2cccc3ccccc23)cc(NC(=O)c2ccccc2OC)c1,6.1%
O=C1c2ccccc2CC[C@H]1CNCCc1ccc(O)cc1,10.5%
N#Cc1cccc(-c2ccc3ncnc(NCc4ccccc4)c3c2)c1,-35.0%[inhibitor]
CCOC(=O)c1c(C)[nH]c2ccc3c(c12)CN1CCc2cc(OC)ccc2[C@@H]1O3,7.0%
C[C@H](NC(=O)OC(C)(C)C)C(=O)c1ccco1,25.2%
CC(C)Cc1ccc([C@@H](C)C(=O)NS(C)(=O)=O)cc1,-0.7%
OC1C(O)C(O)C(O)C(O)C1O (stereo not given),-7.1%
